# Screening data as filed in PubChem.
# Cruzain inh Det: qHTS Assay for Promiscuous and Specific Inhibitors of Cruzain (with detergent); purified cruzain, Z-FR-AMC fluorescence, 0.01% Triton; Potency, µM, without a hit: max response, negative = inhibition, most hits filed as inhibitors; Cruzipain (Trypanosoma cruzi), P25779; AID 1478, 2009; 200,000 compounds, 0.43% hits;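 note: plate controls were neutral wells for no effect and buffer without enzyme for full effect; nearly all actives have a fitted effect of over 40% in size; top concentration of the series not given in the record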
# Target sequence (P25779 123-467 limits assumed): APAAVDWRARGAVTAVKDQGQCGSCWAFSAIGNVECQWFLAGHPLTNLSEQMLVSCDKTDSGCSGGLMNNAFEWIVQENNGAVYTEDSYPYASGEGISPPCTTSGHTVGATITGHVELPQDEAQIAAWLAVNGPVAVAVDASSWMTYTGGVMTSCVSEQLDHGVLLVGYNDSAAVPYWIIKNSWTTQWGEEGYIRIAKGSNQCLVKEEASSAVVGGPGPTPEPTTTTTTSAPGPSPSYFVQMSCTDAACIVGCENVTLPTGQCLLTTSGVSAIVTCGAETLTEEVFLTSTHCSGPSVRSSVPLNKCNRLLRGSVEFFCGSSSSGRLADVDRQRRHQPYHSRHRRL
#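 Purified cruzain (1.5 nM final) was preincubated with compounds for 15 min at room temperature in 100 mM sodium acetate pH 5.5, 5 mM DTT, 0.01% Triton X-100. Reaction started with 2 uM Z-FR-AMC; AMC fluorescence change over 60 s gave activity.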
# Lassa entry inh: qHTS for Inhibitors of binding or entry into cells for Lassa Virus. Lassa virus pseudotype entry inhibition, cell reporter; control for the full effect not named in the record. Potency, µM (highest dose often 37.9 µM), for the others: at the highest dose activity change, negative = inhibition, most hits filed as inhibitors. 300,000 compounds, 1.2% hits; active means well fitted inhibition curve with a large enough effect; inconclusive means small, poorly fitted or top-dose-only effect, or effect the other way; inactive means flat fitted curve, though single readings scatter; tested in HEK293 cells; note: % is set by controls: 0 for no effect and ±100 for the full control effect; nearly all actives have a fitted effect of over 50% in size; luciferase read-out
# SARS PLpro yeast: qHTS of Yeast-based Assay for SARS-CoV PLP. S. cerevisiae expressing SARS-CoV PLpro, growth rescue; control for the full effect not named in the record. Potency, µM (top dose mostly 32.9 µM), inactives show at the top dose activity, positive = growth rescue. 330,000 compounds, 0.19% hits. AID 485353, 2010; active means well fitted rising curve with a large enough effect; inconclusive means small, poorly fitted or top-dose-only effect; inactive means no such curve, though single readings can be large or run the other way; note: 0% is about no effect; nearly all actives have a fitted effect of over 55% in size; growth read by luminescence after 48 h
# RE007 growth inh: qHTS Assay for Inhibitors of the HIV-1 protein Vpr; S. pombe RE007 Vpr strain, BacTiter-Glo ATP luminescence, 24 h; control for the full effect not named in the record; Potency, µM (doses to about 92.2 µM), inactives show top-dose activity change, negative = less growth; 360,000 compounds, 0.21% hits; AID 651644, 2012; active = well fitted falling curve with a large enough effect; inconclusive = small, poorly fitted or top-dose-only effect; inactive = no such curve, though single readings can be large or run the other way;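 note: % is set by controls: 0 for no effect and ±100 for the full control effect; nearly all actives have a fitted effect of over 50% in size; the assay follows cell death caused by Vpr and the record does not say whether a fall means rescue or toxicity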
#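 Fission yeast RE007 carrying one integrated HIV-1 vpr copy, seeded at OD 0.01 in PMG+AL medium with 23 nL pinned compound. Grown 24 h at 30 degrees; viability read by BacTiter-Glo luminescence after 5 min.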
# 2A StopGo: High Throughput Screening for Foot and Mouth Disease Virus Antivirals. human cells with a luciferase reporter of 2A StopGo recoding; control for the full effect not named in the record. Potency, µM (titrated, usually from 57.9 µM), without a hit: top-dose signal change, negative = less light. 410,000 compounds, 1.2% hits. AID 1159524, 2015; active = well fitted falling curve with a large enough effect; inconclusive = small, poorly fitted or top-dose-only effect; inactive = no such curve, though single readings can be large or run the other way; tested in HEK293T cells; note: % is set by controls: 0 for no effect and ±100 for the full control effect; nearly all actives have a fitted effect of over 45% in size; luciferase light after 4 h
# Marburg entry inh: qHTS for inhibitors of binding or entry into cells for Marburg Virus; 300,000 compounds, 1.8% hits; Marburg virus pseudotyped entry inhibition, cell reporter; control for the full effect not named in the record; about a third of the inactives were read at about 46 µM; Potency, µM (doses to about 37.8 µM), inactives show at the highest dose activity change, negative = inhibition, most hits filed as inhibitors; active = well fitted inhibition curve with a large enough effect; inconclusive = small, poorly fitted or top-dose-only effect, or effect the other way; inactive = flat fitted curve, though single readings scatter; tested in HEK293 cells; about a fifth of its hits are not listed in these tables; note: % is set by controls: 0 for no effect and ±100 for the full control effect; luciferase read-out
# NS1 inh: qHTS Assay for Inhibitors of Influenza NS1 Protein Function | S. cerevisiae slowed by influenza A NS1, growth recovery by OD600 | Potency, µM (highest dose often 46.1 µM), without a hit: top-dose activity, positive = more growth | 270,000 compounds, 0.4% hits; active means well fitted rising curve with a large enough effect; inconclusive means small, poorly fitted or top-dose-only effect; inactive means no such curve, though single readings can be large or run the other way; note: nearly all actives have a fitted effect of over 50% in size
#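 Compounds were scored for reversing the slow growth caused by influenza A NS1 in S. cerevisiae, measured by optical density at 600 nm. Assay medium contained 2% galactose at pH 6.0; NS1-free yeast of the same strain were the positive control.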
# Cruzain noTriton: qHTS Assay for Promiscuous and Specific Inhibitors of Cruzain (without detergent); Cruzipain (Trypanosoma cruzi), P25779; purified cruzain, Z-FR-AMC fluorescence, no detergent; Potency, µM, inactives show max response, negative = inhibition, usual class: inhibitors; 200,000 compounds, 2.3% hits; AID 1476, 2009;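 note: plate controls were enzyme without inhibitor for no effect and buffer without enzyme for full effect; nearly all actives have a fitted effect of over 40% in size; top concentration of the series not given in the record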
#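 Purified cruzain at 1.5 nM, pre-incubated 15 min with compound at room temperature in 100 mM sodium acetate pH 5.5, 5 mM DTT, 0.00005% Triton X-100. Reaction started with 2 uM Z-FR-AMC; AMC fluorescence increase over 60 s gives rate.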
# Starred values were filed as active, the others as inactive; ? = inconclusive; nt = not tested or not shown; & = joins results of further samples; [ ] = another dose, or the depositor's remark. Unless noted, calls come from the whole dose curve; as a rule, active = well fitted curve in the direction sought with a large enough effect; inconclusive = small, poorly fitted or top-dose-only effect, or another doubt; inactive = no such curve, though single readings can be large; an effect the other way counts as inactive or inconclusive. Potency is the fitted concentration of half-maximal effect.
# Sequence of screens: Lassa entry inh, Cruzain inh Det, Marburg entry inh, 2A StopGo, RE007 growth inh, Cruzain noTriton, NS1 inh, SARS PLpro yeast
CCOC(=O)c1ccc(-c2ccc(/C=C(\C#N)C(=O)Nc3c(C)cccc3Cl)o2)cc1
→ ?, -2.0%, nt, 26.5%, nt, -1.3%, nt, nt
CCOc1ccc(-c2cc3c(=O)n(CC(=O)NCc4ccc(C)cc4)ccn3n2)cc1
→ 23.0%[46.1 µM], 1.6%, nt, 23.5%, nt, -1.9%, nt, nt
CC1(C)Cc2sc3c(=O)[nH]c(=S)[nH]c3c2CO1
→ nt, nt, nt, 0.8%, 38.0%, nt, 2.0%, -0.2%
CC(C)Sc1nnc2n(CCc3ccccc3)c(=O)c3c4c(sc3n12)COC(C)(C)C4
→ -0.1%, nt, -3.0%, -21.2%, -17.2%, nt, nt, nt
Cc1cc2c(cc1S(=O)(=O)NCCc1ccccc1)NC(=O)CO2
→ -13.8%, nt, ?, 39.0%[activator], 12.0%, nt, nt, 4.0%
COc1ccccc1C(=O)C(=O)c1ccccc1OC
→ -2.1%[46.1 µM], nt, -13.6%[46.1 µM], 14.0%, -10.2%, nt, nt, nt
COC(=O)CSC1=NS(=O)(=O)c2ccccc21
→ ?, 4.8%, -12.1%, ?, -17.4%, -1.9%, -111.2%, -8.6%
Cc1nnc2sc(-c3ccncc3)nn12
→ 12.5%, 5.2%, 21.4%, 2.0%, 6.3%, 4.7%, 2.9%, 11.8%
Cc1csc(SCC(=O)Nc2nnc(C)s2)n1
→ 0.9%[46.1 µM], nt, -5.2%[46.1 µM], 5.9%, -9.9%, nt, -8.2%, 0.0%
Cc1ccc(-c2cc(C(=O)NCCN3CCOCC3)c3ccccc3n2)o1
→ 23.1%[46.1 µM], nt, -4.5%[46.1 µM], -0.9%, -5.1%, nt, 4.1%, -4.1%
O=C(CN1CCN(c2cccc(Cl)c2)CC1)NCc1ccccc1
→ nt, nt, nt, -15.0%, -10.1%, nt, -29.4%, -10.2%
Cc1ccc2c(c1)N(CCCC(=O)NCCC1=CCCCC1)C(=O)CO2
→ -10.8%, -0.1%, -1.6%, -11.5%, -4.5%, 22.8%, -110.5%, -22.2%
CC(C)(C)N(NC(=O)Nc1ccccc1)C(=O)c1ccccc1
→ -1.6%, 2.4%, -3.8%, -8.1%, -12.1%, -0.3%, 11.1%, -1.7%
Cc1cc(=O)[nH]c(NN=Cc2c(Cl)cccc2Cl)n1
→ 17.2%, nt, 21.2%, -23.1%, -2.1%, nt, nt, nt
Nc1ccc2nc(C3CCCCC3)[nH]c2c1
→ -6.0%, nt, 2.9%[46.1 µM], 15.7%, 1.7%, nt, -0.8%, 0.6%
COCc1ccc(C(=O)Nc2ccc(C(=O)O)cc2)o1
→ nt, nt, nt, 22.9%, 1.5%, nt, -4.4%, 1.4%
Cc1c2c(n3c(nc4ccccc43)c1C#N)N(CCN(C)C)CC2
→ 0.1%[46.1 µM], nt, ?, -11.8%, -2.8%, nt, -3.1%, -0.1%
Cc1ccc(CNC(=O)CSc2nc3ccsc3c(=O)n2Cc2ccccn2)cc1
→ 3.1%, nt, 24.0%[46.1 µM], 2.4%, 18.0%, nt, nt, -1.1%
Nc1nc(Cl)nc2c1ncn2C1OCC(O)C(O)C1O (stereo not given)
→ 7.1%, nt, 13.7%, -15.8%, 24.7%, nt, nt, nt
CCOc1ccc(NC(=S)N(CCc2c(C)[nH]c3ccc(C)cc23)Cc2ccncc2)cc1
→ -9.0%, -5.7%, 2.31µM*, 4.4%, -4.9%, 9.1%, 19.3%, -11.1%
Cc1cc2[nH]c(=O)c(=O)[nH]c2cc1S(=O)(=O)N1CCN(c2cccc(Cl)c2)CC1
→ 10.2%[46.1 µM], nt, nt, -8.0%&-20.9%, -6.2%, nt, 8.3%, -1.6%
CC(c1ccon1)N(C)Cc1cn(C)nc1-c1ccc2c(c1)OCCO2 (stereo not given)
→ 22.4%, nt, -5.9%[46.1 µM], 0.6%, 23.5%, nt, -4.4%, -1.2%
O=C(COC(=O)Cc1c(F)cccc1Cl)Nc1ccc2[nH]c(=O)[nH]c2c1
→ 21.0%[46.1 µM], nt, -4.8%[46.1 µM], -3.3%, 14.3%, nt, nt, 3.4%
CCC(=O)N1CCc2cc(S(=O)(=O)NCCN3CCC(C)CC3)ccc21
→ 1.7%, -1.6%, ?, -5.3%, -3.7%, 0.7%, ?, 8.1%
CC1=CC(=NOC(=O)c2cccc([N+](=O)[O-])c2)C=C(C)C1=O
→ -4.1%, -7.3%, -4.0%, -3.9%, -2.9%, 4.4%, -13.3%, -15.0%
CCCn1c(SCC(=O)NCc2cccs2)nc2c1c(=O)n(C)c(=O)n2C
→ 24.6%, 1.5%, 5.1%, 9.3%, -9.9%, 0.0%, 1.9%, -4.7%
COC(=O)[C@H](C)NC(=O)Nc1cccc(Br)c1
→ 11.7%[46.1 µM], nt, 10.0%[46.1 µM], -14.9%, -2.0%, nt, 0.0%, 0.2%
COCC(=O)Nc1ccc(-c2cn3cccnc3n2)cc1
→ 17.3%, -26.5%, 18.4%, 36.9%[activator], 1.4%, ?, -12.5%, -11.1%
CCC1Oc2ccccc2N(CC(=O)NCc2ccccc2)C1=O (stereo not given)
→ ?, 0.0%, nt, 32.9%[activator], nt, 8.2%, nt, nt
CCOc1ccc(NC(=O)CSc2oc(-c3ccc(C)cc3)nc2S(=O)(=O)c2ccc(C)cc2)cc1
→ ?, 0.7%, 11.6%[46.1 µM], -6.9%, nt, -3.3%, nt, nt
CC(C)[C@H](NC(N)=O)C(=O)Nc1ccc2c(c1)CCC2
→ 3.7%, 1.1%, 2.5%[46.1 µM], -7.8%, 9.7%, 3.2%, -11.6%, -0.8%
CC(=O)N1c2ccc(S(=O)(=O)NCCC(=O)Nc3ccccc3C)cc2CC1C (stereo not given)
→ nt, nt, nt, 8.2%, 13.7%, nt, -1.5%, 2.1%
CS(=O)(=O)N1N=C(c2ccc(Cl)cc2)CC1c1cccs1 (stereo not given)
→ -3.0%, 6.6%, -16.2%, 9.8%, -4.4%[3.69 µM], 3.4%, 3.5%, -6.8%
CCOC(=O)c1sc(S(C)(=O)=O)c2c1CCc1conc1-2
→ -21.8%, nt, 28.0%[46.1 µM], 30.6%[activator], 7.8%, nt, -2.0%, 0.5%
COc1ccc(C2NC(=O)NC(O)(C(F)(F)F)C2C(=O)c2ccccc2)cc1OC (stereo not given)
→ 22.3%, 2.4%, 13.4%, nt, -0.4%, -1.8%, -1.6%, 3.7%
Cc1ccnn1CC(=O)N/N=C/c1cccs1
→ 10.0%, -3.9%, -17.9%, -0.3%, 3.7%, -5.8%, 15.5%, 0.1%
O=C(CNC(=O)c1ccc(Cl)cc1Cl)NCc1ccccn1
→ -10.2%, nt, 8.6%, -9.3%, -8.1%, nt, nt, -1.0%
CCc1c(C2(O)CCCCC2)[nH]c2c(C(=O)OC)cc(Cl)cc12
→ nt, nt, nt, 0.0%, ?, nt, -131.6%, -35.5%
CCCCn1nnc(NC(=O)c2cc3ccccc3o2)n1
→ -5.4%, -0.8%, -20.2%, 42.5%[activator], -12.9%, -7.4%, -20.1%, -1.0%
CC(=O)NC(CCS(C)(=O)=O)C(=O)Nc1nccs1 (stereo not given)
→ 10.3%, 2.8%, 11.0%, 0.3%, -0.3%, -3.7%, 4.6%, -4.0%
O=C(CCCC(=O)N(CC(=O)NC1CCCC1)Cc1ccccc1)Nc1ccccn1
→ 1.9%, 7.9%, -1.6%, -7.1%, -2.7%, -7.6%, -7.1%, 17.5%
COC(=O)c1ccc(Oc2c(C(F)(F)F)oc3c(CN4CCN(C)CC4)c(O)ccc3c2=O)cc1
→ 12.2%, -0.8%, -19.6%, 0.6%, -0.3%, -6.3%, 20.1%, -5.2%
COC(=O)c1sccc1NC(=O)CN(C)NS(=O)(=O)c1ccc([N+](=O)[O-])cc1
→ -3.2%, -2.1%, -1.1%[46.1 µM], -0.3%, 2.1%, -0.7%, -7.3%, -12.6%
COc1ccc(Cn2nnnc2C(c2cc3ccc(OC)cc3[nH]c2=O)N2CCCCCC2)cc1 (stereo not given)
→ 5.5%, -3.8%, 10.1%, -20.7%, 2.8%, -18.5%, -5.1%, -7.4%
O=C(CSc1nncc(=O)[nH]1)Nc1cccc([N+](=O)[O-])c1
→ nt, nt, nt, -5.9%, 7.6%, nt, -3.3%, -2.9%
Cc1cccc(NC(=O)C2CCCC2)c1
→ 1.5%, -0.7%, 12.5%, 45.3%[activator], 10.7%, 9.1%, -6.3%, -8.1%
CSc1ccc(/C=N\NC(=O)CNc2ccc(C)cc2)cc1
→ 1.3µM*, -14.1%, -7.6%, nt, -10.3%, -16.2%, 4.5%, -8.6%
O=C(NN=C1CCCCCC1)c1cccs1
→ 5.5%[46.1 µM], nt, 10.3%[46.1 µM], 51.6%[activator], 4.9%, nt, -10.5%, -3.3%
CN(C)c1ccnc(-n2cccc2/C=N/OCc2cccc(F)c2)c1C#N
→ 0.8%, -2.5%, 10.4%, -3.0%, 28.7%, 2.8%, -8.1%, -12.9%
O=C(CNC(=O)c1ccc(Br)o1)NNC(=O)c1cccc(Cl)c1
→ 17.4%, nt, ?, -9.4%, -10.5%, nt, nt, -1.0%
CCOC(=O)c1ccccc1Nc1nc2ccc(C)cc2n2nnnc12
→ ?, -0.7%, -5.3%[46.1 µM], 5.0%, nt, -5.0%, nt, nt
CN(C(=O)c1cncc(Br)c1)c1c(N)n(Cc2ccccc2)c(=O)[nH]c1=O
→ 26.8%, nt, 8.4%[46.1 µM], -14.7%, 1.6%, nt, nt, -0.1%
